A488 autofl: qHTS Assay for Spectroscopic Profiling in A488 Spectral Region | compound autofluorescence, A488 spectral region, dye equivalency; stronger effect = higher value | max dye equivalency, M | actives 0.1% (n = 59,000) | AID 591, 2007; active = above 10 nM dye equivalent; inconclusive = 1 to 10 nM; inactive = 1 nM or less; about half of its hits are not listed in these tables;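 further: highest value over a series up to 38 µM; compound alone in buffer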
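Autofluorescence read at ex 480/em 540 nm after 15 min RT in 100 mM Tris pH 8.0; compound signal normalized to A488 standard series on each plate, reported as dye-equivalent concentration at each test concentration.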
Resorufin autofl: qHTS Assay for Spectroscopic Profiling in Resorufin Spectral Region; Compound fluorescence, resorufin region 547/598 nm, buffer; stronger effect = higher value; max dye-equivalent concentration, M; actives 0.04% (n = 59,000); active = above 10 nM dye equivalent; inconclusive = 1 to 10 nM; inactive = 1 nM or less; a few of its hits are not listed in these tables; further: highest value over a series up to 38 µM
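Compounds in 100 mM Tris, pH 8.0, incubated 15 min at room temperature, then fluorescence read at 547 nm excitation/598 nm emission. Signal converted to dye-equivalent concentration via an on-plate six-point resorufin standard curve, per compound concentration.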
TSHR ag: qHTS Assay for Agonists of the Thyroid Stimulating Hormone Receptor; AID 926, 2007; HEK293-CNG-TSHR cells (CNG channel as cAMP sensor), membrane potential dye, cAMP; actives 0.48% (n = 73,000); Potency, µM (doses to about 57.1 µM), without a hit: at the highest dose activation, most hits filed as activators; active = well fitted activation curve of enough size with the parental cells flat; inconclusive = any curve in the parental cells; inactive = parental cells flat and receptor cells flat or falling; further: potency means the concentration at half of the fitted maximal effect; % of control where 0% means no effect; weak receptor curves with flat parental cells got no call and are not listed
Target sequence (P16473 whole entry, looked up): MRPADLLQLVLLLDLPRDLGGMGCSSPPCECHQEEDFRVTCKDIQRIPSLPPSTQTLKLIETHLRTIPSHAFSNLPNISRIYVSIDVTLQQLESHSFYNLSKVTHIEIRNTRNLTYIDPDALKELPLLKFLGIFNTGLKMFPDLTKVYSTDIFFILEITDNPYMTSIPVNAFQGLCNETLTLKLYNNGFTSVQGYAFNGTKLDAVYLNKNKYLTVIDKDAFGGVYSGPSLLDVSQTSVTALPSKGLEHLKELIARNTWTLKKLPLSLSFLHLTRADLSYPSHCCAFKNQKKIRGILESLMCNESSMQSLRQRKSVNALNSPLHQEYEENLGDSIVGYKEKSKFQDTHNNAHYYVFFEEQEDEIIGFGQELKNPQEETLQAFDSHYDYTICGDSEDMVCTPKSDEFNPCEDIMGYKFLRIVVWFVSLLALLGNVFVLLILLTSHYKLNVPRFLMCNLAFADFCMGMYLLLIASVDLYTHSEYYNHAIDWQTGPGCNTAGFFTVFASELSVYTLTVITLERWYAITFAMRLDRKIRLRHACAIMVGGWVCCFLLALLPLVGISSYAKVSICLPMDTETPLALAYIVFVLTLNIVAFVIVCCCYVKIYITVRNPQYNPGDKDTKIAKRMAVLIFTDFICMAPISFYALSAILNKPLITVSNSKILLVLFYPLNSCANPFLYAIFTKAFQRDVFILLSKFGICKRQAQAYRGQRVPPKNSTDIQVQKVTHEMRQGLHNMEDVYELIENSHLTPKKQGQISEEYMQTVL
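HEK 293 cells stably expressing TSHR and a modified CNG channel, with CNG-only parental cells as counterscreen, were preloaded 60 min at room temperature with membrane potential dye containing 100 uM RO 20-1724. Compound exposure was 30 min, and depolarization was read as fluorescence at 590 nm.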
AID923: qHTS Assay for Allosteric/Competitive Inhibitors of Caspase-1: Spectroscopic Profiling in AFC Spectral Region; compound fluorescence, AFC spectral region (405/520 nm); almost no hit is shown here; Potency, µM (doses to about 57.5 µM), without a hit: at the top dose fluorescence increase, most hits filed as activators; actives 1.1% (n = 75,000); AID 923, 2007; active means well fitted activation curve with a large enough effect; inconclusive means small, poorly fitted or top-dose-only effect;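 further: potency means the concentration at half of the fitted maximal effect; 0% is about no effect; scaled to a free AFC standard on each plate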
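Baseline compound fluorescence (AFC region, 405 nm ex/520 nm em) taken from the intercept of kinetic reads with 50 nM caspase-1 and 5 uM Ac-WEHD-AFC; normalized to an on-plate AFC standard curve; compounds titrated up to 57 uM.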
A647 autofl: qHTS Assay for Spectroscopic Profiling in A647 Spectral Region; Compound fluorescence, A647 channel (570/671 nm), Tris buffer; max dye-equivalent concentration, M; 59,000 tested, under 10 active; active means above 1 µM dye equivalent; inconclusive means 0.1 to 1 µM; inactive means 0.1 µM or less;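 further: values scaled relative to a standard on each plate; highest value over a series up to 38 µM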
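Tris 100 mM pH 8.0; cpd + A647 stds pin-transferred; 15 min RT; CCD imager, ex 570/em 671. Output = A647-equivalent conc. per cpd conc.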
* = called active by the depositor; i = inactive; ? = inconclusive; . = no result given; & = joins results of further samples; [ ] = another dose, or the depositor's remark. Only part of the results is shown; rates above refer to the full screens.

SMILES,A488 autofl,Resorufin autofl,TSHR ag,AID923,A647 autofl
COCCNC(=O)C(C)OC(=O)c1cc2occc2n1C (centres undefined),i,i,?,1.3%,1e-09
CCOC(=O)c1ccccc1NC(=O)c1cn(CC)c2nc(C)ccc2c1=O,i,i,13%,3.0%,4.3e-09
COc1cccc(-c2nnc(SCC(=O)Nc3cc(C)ccc3OC)n2N)c1,i,i,?,-0.1%,2.3e-08
COc1cccc(-n2nnnc2SCC(=O)c2cc(OC)ccc2OC)c1,i,i,?,-0.6%,4.4e-08
CCN(CC)CCCNC(CC(=O)O)C(=O)O (centres undefined),i,i,0%,-0.5%,3.5e-09
COCCN1C(=O)c2oc3ccccc3c(=O)c2C1c1ccc(O)c(OC)c1 (centres undefined),.,.,-1%,0.4%,.
N#Cc1nc(COc2ccc(Cl)cc2Cl)oc1N1CCOCC1,i,i,?,2.1%,3.8e-08
O=C(Nc1ccc2c(c1)OCO2)N1CCN(S(=O)(=O)c2ccc(Cl)cc2)CC1,i,i,-12%,-1.7%,2.9e-08
O=C(NCc1cccnc1)c1cc(-c2ccccc2)on1,i,i,4%,0.7%,1e-09
CNCC[C@H](Oc1ccccc1C)c1ccccc1,i,i,20%,-3.7%,8.3e-09
COC(=O)C1=C(C)N=C2SCCC(=O)N2C1c1ccc(C(=O)OC)cc1 (centres undefined),i,i,17%,-2.0%,5.9e-09
Cc1ccc(CNc2cc(-c3nn4c(C)nnc4s3)ccc2C)s1,i,i,.,10%,2.7e-08
COC(=O)[C@@]1(Cc2ccc(F)cc2)[C@H]2c3cc(C(=O)N(C)C)n(Cc4ccc(OC)c(OC)c4)c3C[C@H]2CN1C(=O)c1ccccc1,.,.,?,-0.5%,.
O=C(NCc1ccco1)C(c1cccnc1)N(C(=O)Cn1nnc2ccccc21)c1ccccc1 (centres undefined),i,i,3%,-0.3%,7.2e-09
COc1cc(C2C3=C(Nc4ncnn42)c2ccccc2CC3)cc(OC)c1OC (centres undefined),i,i,15%,0.3%,1e-09
COC(=O)c1c(C)[nH]c(C(=O)COC(=O)Cc2ccc3c(c2)OCCO3)c1C,i,i,?,0.9%,1e-09
COc1ccc(C2C(C(N)=O)=C(C)Nc3nc(-c4ccccc4Cl)nn32)c(OC)c1 (centres undefined),.,.,-6%,-1.2%,.
Cn1c(CNc2ccccn2)c(C#N)c2ccccc21,i,i,3%,-0.9%,1.7e-08
Cn1c(SCC(=O)Nc2ccc(F)cc2)nnc1-c1cccnc1,.,.,0%,4.7%,.
CCCCOCCO,.,.,?,6.6%&4.4%,.
O=C1CCc2nc3sc4c(c3c(=O)n2N1)CCCC4,i,i,3%,0.3%,1e-09
Cc1noc(C)c1-c1ccc2ncnc(N3CCC(C(=O)O)CC3)c2c1,i,i,3%,0.5%,4e-08
O=C(NCc1ccc2c(c1)OCO2)C1CCCN1C(=O)Nc1ccc(F)cc1 (centres undefined),i,i,-1%,-1.4%,1e-09
COC(=O)c1c(NC(=O)c2ccoc2C)sc2c1CCC2,i,i,12%,2.0%,2.8e-09
CCN(CC)C(=O)C1CCCN(Cc2ccc(N(C)C)cc2)C1 (centres undefined),.,.,1%[11.4 µM],0.9%,.
CC(C)(C)OC(=O)N1CCC(C(N)=O)CC1,.,.,0%,0.9%,.
COC(=O)C(C#N)c1nc2ccccc2nc1N1CCN(Cc2ccc3c(c2)OCO3)CC1 (centres undefined),i,i,-6%,2.2%,3.1e-09
O=C(N[C@@H](c1ccccc1)[C@@H]1C[C@H]1C(=O)NCc1ccccc1)OCc1ccccc1,.,.,?,1.4%,.
COc1cc(NC(=O)c2ccco2)ccc1NC(=O)c1ccccc1Cl,i,i,2%,3.3%,1.2e-08
CCOC(=O)N1CCC(NC(=O)c2cc3sccc3n2CC)CC1,.,.,5%,0.4%,.
Cc1csc(NC(=O)CSc2nnc(Cc3cccn3C)n2-c2ccc(F)cc2)n1,.,.,9%,-2.8%,.
CCOc1ccc(CN(CCO)CCO)cc1C(=O)OC,i,i,1%,0.5%,2.4e-08
O=C(NCCC1=CCCCC1)C1CCCN(S(=O)(=O)c2cccnc2)C1 (centres undefined),.,.,-7%,2.2%,.
CC[C@@H](c1ccccc1)n1c(=O)n2n(c1=O)[C@H]1[C@H](O)[C@H]3O[C@@H]3/C(=N/OC[C@@H](O)COCc3ccco3)[C@@H]1CC2,.,.,-3%[11.4 µM],1.2%[11.5 µM],.
O=c1c(O)c(-c2ccc(O)cc2)oc2ccc(O)cc12,i,i,5%,1.5%,1e-09
O=C(CSc1oc(-c2ccco2)nc1S(=O)(=O)c1ccccc1)NCC1CCCO1 (centres undefined),i,i,1%,5.0%,8.1e-09
Cc1nc2nc(C)c(CCC(=O)NC(C)c3ccc4c(c3)OCCO4)c(C)n2n1 (centres undefined),i,i,.,-0.6%,2e-08
CCc1c(C)n2nc(C)cc2[nH]c1=O,i,i,3%,0.5%,1.9e-08
Cc1nnc(SCC(C)C)[nH]c1=O,i,i,1%,-1.4%,4.9e-09
O=C1c2ccccc2-c2ccc(N=[N+]([O-])c3ccc4c(c3)C(=O)c3ccccc3-4)cc21,i,i,0%[11.4 µM],-0.3%[11.5 µM],1e-09
O=C(NCCCNCc1ccccc1)c1ccccn1,i,i,4%,0.9%,1e-09
Cn1c(=O)c2c(ncn2CC(O)CNc2ccc(Cl)cc2)n(C)c1=O (centres undefined),i,i,-11%,-0.8%,1e-09
COc1ccc(-c2nnc3ccc(SC)nn23)cc1,i,i,?,-0.7%,1e-09
CCC(C)[C@@H](C(=O)Nc1ccc(OC)c(OC)c1)N1Cc2ccccc2C1=O (some centres undefined),.,.,27%,-3.1%,.
CCS(=O)(=O)Nc1cc(-c2nc3cccnc3s2)ccc1C,.,.,2%,8.3%,.
COC(=O)C1=C(C)N(Cc2ccccc2)C2=C3C(=O)N(C)C(=O)C3[C@@](O)(C(=O)OC)C(=O)N2C1c1ccccc1 (some centres undefined),.,.,?,3.2%&1.1%[11.5 µM],.
O=C(COc1ccc(Cl)cc1Cl)NCc1ccncc1,.,.,-1%[11.4 µM],0.2%,.
CCn1c(CNc2cccc(Cl)c2)nnc1SCC(=O)OC1CCCCC1,i,i,29%,-1.6%,2e-09
O=c1cnc2cncnc2n1Cc1ccccc1Cl,i,i,32µM*,2.5%,2.5e-08
N#CCSc1nc2c(cc1C#N)CCCC2,i,i,?,3.6%,1e-09
Cc1ccc2[nH]c3c(N4CCCCCC4)ncnc3c2c1,i,i,.,.,3.8e-08
CC1=C(C#N)C(=O)OC(C)(C)C1,?,i,.,.,1e-09
CCC(=O)Nc1sc2c(c1C(N)=O)CCN(C(C)=O)C2,.,.,7%,0.7%,.
O=c1cc(-c2cccc3ccccc23)[nH][nH]1,i,i,-20%,6.2%,1e-09
COCCn1nnnc1C(c1ccccc1OC)N1CCN(c2ccccc2)CC1 (centres undefined),i,i,4%,0.4%,1.6e-08
CCCN1Cc2cccc(C(=O)N3CCN(c4cc(Cl)ccc4C)CC3)c2C1=O,.,.,4%,-0.7%,.
Clc1ccccc1-c1ccc(/C=N/n2cnnc2)o1,.,.,9%,1.9%,.
Cc1noc(C)c1S(=O)(=O)NCC(=O)O,i,i,-6%,-0.1%,3.1e-08
CCn1c(SC/C=C/c2ccccc2)nnc1-c1cnccn1,i,i,?,2.1%,1.7e-09
Cn1c(CN2CCOCC2)nc2cc(NC(=O)c3ccc(Cl)cc3)ccc21,i,i,?,-0.9%,1.2e-09

Two of these compounds, reformatted:
Values in the order – A488 autofl | Resorufin autofl | TSHR ag | AID923 | A647 autofl
COc1cc(C2C3=C(Nc4ncnn42)c2ccccc2CC3)cc(OC)c1OC (centres undefined)
  i | i | 15% | 0.3% | 1e-09
COC(=O)c1c(C)[nH]c(C(=O)COC(=O)Cc2ccc3c(c2)OCCO3)c1C
  i | i | ? | 0.9% | 1e-09

Next section.
SMILES,A488 autofl,Resorufin autofl,TSHR ag,AID923,A647 autofl
Cc1ccc(-n2nnnc2SCC(=O)N2c3ccccc3NC(=O)C2(C)C)cc1,i,i,.,-2.4%,1e-09
COc1ccc(O)c(C(=O)c2cnn(C(=O)c3cc(C)oc3C)c2)c1,i,i,2%,-0.1%,2.1e-08
C=CCSC1=C(C#N)C(c2ccccc2OCC)CC(=O)N1 (centres undefined),i,i,.,-1.6%,2.1e-08
CCCCCCSc1ncc(C#N)c(N)n1,i,i,.,4.0%,2.6e-09
COc1ccc2c(c1)C1(Nc3ccccc3-c3nc4ccccc4n31)C(=O)N2 (centres undefined),i,i,?,-0.6%,3.6e-08
O=C(CCNS(=O)(=O)c1cccs1)NCc1cccs1,i,i,4%,0.5%,1e-09
O=C1c2ccccc2C(=O)N1CCN1CCc2ccccc21,i,i,.,.,3.5e-08
Cn1c(=O)c2c(nc(SCC(=O)Nc3ccc(N4CCOCC4)c(Cl)c3)n2C)n(C)c1=O,i,i,0%,2.1%,7.9e-09
CCOC(C)=O,.,.,6%,4.2%,.
CCC1Sc2ccccc2N(CC(=O)NC2CCCC2)C1=O (centres undefined),i,i,?,-0.8%,6.6e-09
O=S(Cc1ccc(Cl)cc1)CC(O)COc1ccc(Cl)cc1 (centres undefined),.,.,-7%[11.4 µM],-0.2%,.
COc1ccccc1N1CCN(Cc2ccc(Br)o2)CC1,.,.,15%[11.4 µM],1.1%,.
COc1ccc(OC)c(NC(=O)COC(=O)c2ccc(-n3cnnn3)cc2)c1,i,i,-1%,-0.4%,1.4e-09
COc1ccc(C2C(C(C)=O)=C(C)N=c3s/c(=C/c4ccc5c(c4)OCO5)c(=O)n32)cc1 (centres undefined),i,i,-4%,1.4%,1.5e-09
Cn1ccnc1Sc1nc2ccccc2nc1NS(=O)(=O)c1ccccc1,i,i,2%,4.6%,1e-09
Cc1cccc(N2C(=O)CC(N3CCN(C(=O)c4ccccc4)CC3)C2=O)c1 (centres undefined),.,.,2%,0.8%,.
CCOC(=O)c1oc2ccccc2c1CSc1nnnn1-c1ccc(C)cc1,i,i,?,-2.4%,3.2e-08
C=CCn1cc(C(=O)N2CCN(C)CC2)c(=O)c2cc(S(=O)(=O)N3CCCC3)ccc21,.,.,-6%,-2.1%,.
CCc1ccc(S(=O)(=O)Nc2ccc(O)c(C(=O)O)c2)cc1,.,.,6%,-3.5%,.
CCCCC(CC)COCC1CO1 (centres undefined),.,.,3%,-4.3%,.
COc1ccc(OC)c(NC(=O)c2cn(C)c(=O)c3cc(OC)c(OC)cc23)c1,i,i,2%,-0.2%,1.9e-08
CC1(C(=O)N(c2ccccc2)C(C(=O)NC2CCCC2)c2ccccn2)CC(=O)N=C2C=CC=CN21 (centres undefined),i,i,1%,-0.8%,2e-08

High-throughput results (PubChem BioAssay)
